Screening data: PubChem, National Center for Advancing Translational Sciences (NCATS)
gsp antag: antagonizes gsp, the McCune-Albright syndrome mutation; gsp-mutant cells, cAMP HTRF, 30 min; control for the full effect not named in the record; Potency, µM (series often up to 76.9 µM), without a hit: top-dose activity change, negative = inhibition, usual class: inhibitors; actives 0.4% (n = 340,000); active = falling curve of any shape with a large fitted effect; inconclusive = falling curve, mostly with a smaller effect; inactive = flat or rising curve; cell line not stated here;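 also: intracellular cAMP measured with PDE inhibitor Ro 20-1724 present during compound exposure; potency is read from the fitted curve at half-maximal effect; % is scaled to controls: 0 for no effect and ±100 for the full control effect; nearly all actives have a fitted effect of over 65% in size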
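Cells in G418 medium, seeded 16-24 h, 37C; buffer exchange to DPBS + 1 mM CaCl2, 0.5 mM MgCl2, 0.05% BSA; cpds in DMSO + […] (300 uM stock), 30 min 37C; HTRF cAMP detection.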
ClpP mod: qHTS Assay for Activators of ClpP; AID 651965, 2013; purified B. subtilis ClpP, FRET peptide cleavage, 20 min; Potency, µM (series often up to 57.5 µM), for the others: at the highest dose activity change, negative = active; actives 1.9% (n = 340,000); active = well fitted falling curve with a large enough effect; inconclusive = small, poorly fitted or top-dose-only effect; inactive = no such curve, though single readings can be large or run the other way; also: potency is read from the fitted curve at half-maximal effect; the source files actives as falling curves though it sought activators and does not explain the sign; nearly all actives have a fitted effect of over 65% in size; many hits overshoot -100%
Target sequence (P80244 whole entry, looked up): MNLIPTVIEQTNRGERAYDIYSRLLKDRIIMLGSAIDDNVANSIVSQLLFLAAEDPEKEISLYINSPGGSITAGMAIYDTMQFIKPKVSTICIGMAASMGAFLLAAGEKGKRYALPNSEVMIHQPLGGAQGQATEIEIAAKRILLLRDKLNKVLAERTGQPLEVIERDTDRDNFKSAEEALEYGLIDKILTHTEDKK
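Buffer: 100 mM Tris/HCl pH8, 100 mM KCl, 0.05% low protease BSA, 2.5% glycerol, 0.01% Tween-20. ClpP 10 microg/mL final; 20 min RT; delta FRET normalized to ADEP and DMSO controls.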
gsp ag: agonists of gsp mutant (McCune-Albright syndrome). gsp mutant cells, cAMP HTRF, 30 min; control for the full effect not named in the record. Potency, µM (series often up to 76.9 µM), for inactives: at the highest dose activation (cAMP increase), usual class: activators. actives 0.13% (n = 340,000). AID 624287; active = well fitted activation curve with a large enough effect; inconclusive = small, poorly fitted or top-dose-only effect, or another doubt; inactive = no such curve, though single readings can be large or run the other way; cell line not stated here;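 also: phosphodiesterase inhibitor Ro 20-1724 added with compounds to block cAMP breakdown; potency is read from the fitted curve at half-maximal effect; nearly all actives have a fitted effect of over 60% in size; about a fifth of the inactives were tested at one dose only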
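Cells stably selected in G418 were plated at 2000/well, grown 16-24 hr, then given compounds in DMSO with the PDE inhibitor […] (300 uM solution added) for 30 min at 37C; cAMP was read by HTRF.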
Sfp inh: Sfp phosphopantetheinyl transferase inhibition; Q9F4F7; Biochemical Sfp PPTase activity, qHTS; Potency, µM, inactives show max response, negative = inhibition, most hits filed as inhibitors; actives 3.5% (n = 310,000); AID 1490; active = well fitted inhibition curve with a large enough effect; inconclusive = small, poorly fitted or top-dose-only effect, or another doubt; inactive = no such curve, though single readings can be large or run the other way;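 also: the enzyme is Sfp with the accession as filed and its product quenches rhodamine fluorescence; potency is read from the fitted curve at half-maximal effect; 0% = enzyme reaction without inhibitor and -100% = no enzyme wells; top concentration of the series not given in the record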
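Reaction rates are the 30-min fluorescence difference (ex 525, em 598 nm) in wells containing 15 nM Sfp, 5 uM rhodamine-CoA and 12.5 uM BHQ-2-YbbR at pH 7.6 with 10 mM MgCl2.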
Menin MLL FP FL: menin-MLL binding inhibition, fluorescein peptide; Fluorescence polarization, fluorescein-MLL peptide displacement from menin; FP activity change, % at 61.4 µM; 290,000 tested, under 10 active; inconclusive = falling polarisation curve, or a change in total fluorescence; inactive = total fluorescence flat and polarisation flat or rising; no compound was filed as active; the % refers to the polarisation; negative = inhibition;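 also: % of control where 0% means no effect; inhibitors lower the polarisation; unlabelled MLL peptide was the positive control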
D2 PAM: human D2 receptor positive allosteric modulation. actives 0.23% (n = 360,000). DiscoveRx D2 beta-arrestin cells, luminescence, 90 min; 100% = 57 uM dopamine signal. potentiation, % (concentration not given with the values); active = potentiation of 50% or more; inconclusive = 30% to 50%; inactive = 30% or less;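 also: compound concentration not given in the record; tested on top of an EC20 dose of dopamine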
Target sequence (P14416 whole entry, looked up): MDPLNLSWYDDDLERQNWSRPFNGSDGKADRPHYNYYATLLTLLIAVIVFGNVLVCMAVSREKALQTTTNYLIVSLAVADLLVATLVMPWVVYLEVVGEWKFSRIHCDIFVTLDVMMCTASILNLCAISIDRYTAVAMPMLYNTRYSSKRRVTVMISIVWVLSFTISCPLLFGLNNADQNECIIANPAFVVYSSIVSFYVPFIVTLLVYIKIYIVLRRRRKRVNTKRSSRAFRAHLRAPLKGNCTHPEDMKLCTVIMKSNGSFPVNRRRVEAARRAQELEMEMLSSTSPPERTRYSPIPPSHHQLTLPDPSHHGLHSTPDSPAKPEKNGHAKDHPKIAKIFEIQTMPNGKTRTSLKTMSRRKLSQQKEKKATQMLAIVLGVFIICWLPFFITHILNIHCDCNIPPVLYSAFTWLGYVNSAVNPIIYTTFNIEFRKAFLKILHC
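PathHunter beta-arrestin assay in DiscoveRx D2 cells. Compounds were added with an EC20 of dopamine (50 nM final) for 90 min at 37 deg C. Luminescence was read 1 h after detection reagent, with 57 uM dopamine as the EC100 control.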
TRPV1 potentiator: enhances activation of the human vanilloid receptor TRPV1; TRPV1-expressing cells, Fluo-8 calcium influx, capsaicin EC20 potentiation; host cell line not named in the record; control for the full effect not named in the record; actives 0.02% (n = 320,000); Q8NER1; potentiation, % at 8.33 µM; active means potentiation above 80%; inconclusive means 30% to 80%; inactive means below 30%; also: 0% is about no effect
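Cells expressing TRPV1 were dye-loaded with Fluo-8 and read kinetically: 10 s baseline, 3 min after compound (agonist portion), then 2 min after EC20 capsaicin (allosteric enhancer portion). Calcium-bound dye fluorescence at 480/520 nm.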
* = called active by the depositor; ? = inconclusive; . = no result given; & = joins results of further samples; ! = a repeat was not active; [ ] = dose if it differs, or a comment.

SMILES | gsp antag | ClpP mod | gsp ag | Sfp inh | Menin MLL FP FL | D2 PAM | TRPV1 potentiator
CC1=CC(C)C(C[N+]2(C)CCCCC2)C(C)C1 (stereo not given) | 2% | 1.4% | 15% | -7% | 1.1 | 0 | -5
COC(=O)Cc1c(C)nc2nc(NCc3cccc([N+](=O)[O-])c3)[nH]n2c1=O | -14% | 0.4% | -65%[inhibitor] | -8% | -2.5 | 0 | -4
Cc1ccc(Nc2nc(N)c([N+](=O)[O-])c(N3CCC(C)CC3)n2)cc1C | 2% | ? | -21% | -2% | 1.3 | -6 | -4
CC(=O)N1CCCc2cc(S(=O)(=O)N3CCCC(C(=O)Nc4cc(C)ccc4C)C3)ccc21 (stereo not given) | -16% | -0.5% | ? | 6% | . | -15 | 5
CCCCN(CCCC)CCNC(=O)CSCc1ccc(C)cc1 | -1% | . | -16%[15.4 µM] | ? | 1.7 | -16 | -2
Cc1ccc2nc(-c3ccc(NC(=O)COC(=O)c4ccc([N+](=O)[O-])o4)cc3)sc2c1 | 8% | 28µM* | 4%[15.4 µM] | -3% | 8.2 | 2 | -3
O=C(N/N=C1\CCCc2c1[nH]c1ccc([N+](=O)[O-])cc21)c1ccncc1 | . | . | . | 10% | -0.7 | . | 14
CNC(=O)C(NC(=O)CNC(=O)c1ccc(Cl)cc1)C(C)(C)C (stereo not given) | . | . | -5%[15.4 µM] | 22% | 0.7 | 8 | 3
O=C(CSc1nnc(Cc2ccccc2)o1)NC1CCCCC1 | 1% | -1.9% | -1% | 4% | -0.9 | -8 | -13
COC(=O)c1cnn2c3c(c(C)nc12)CCCC3 | 6% | 110% | ? | -12% | 1.7 | -4 | -3
CCOCN(C(=O)Cn1cnc2ccccc21)c1c(C)cccc1CC | -33% | -1.2% | -9%[15.4 µM] | 12% | -0.7 | -7 | -16
COc1cc(OC)cc(C(=O)NC(C(=O)Nc2ccc(N3CCOCC3)cc2)C(C)C)c1 (stereo not given) | -8% | -3.7% | 5%[15.4 µM] | . | . | -21 | -1
Cc1cc(F)ccc1N1CCC(N2CCN(CCC(C)C)C(CCO)C2)CC1 (stereo not given) | 4% | . | -15%[15.4 µM] | 8% | -1.1 | -17 | 27
Cc1c(O)nc(SCC(=O)Nc2ccc3c4c(cccc24)CC3)n(-c2ccccc2)c1=O | -10% | . | -5%[15.4 µM] | 2% | 11 | -4 | 6
CCN(Cc1ccccc1)S(=O)(=O)c1cc(C(=O)NC(C)C2CC3CCC2C3)ccc1OC (stereo not given) | -15% | 2.7% | 17% | 19% | 5.3 | -23 | 2
Cc1ccc(OCC(=O)NC(=S)Nc2ccc(Br)cn2)cc1C | 7% | . | -9%[15.4 µM] | 0% | -0.4 | -4 | 11
COc1ccc(CNc2nc3ccccc3n2C)c(O)c1 | 10% | . | ? | 5% | 1.6 | -11 | 12
COc1ccccc1N1CCN(S(=O)(=O)CCNC(=O)/C=C/c2ccc3c(c2)OCO3)CC1 | . | -26% | -19% | . | . | -13 | .
CCC(C)(C)NC(=O)Cc1ccccc1OC | 2% | 1.0% | -29% | 6% | 2.1 | -7 | 1
CCN(CC)S(=O)(=O)c1ccc(/C=C/C(=O)Nc2cccc(F)c2)cc1 | -15% | 7.8% | -7% | 11% | 4.1 | -8 | -11
CC(c1ccccc1)N1C(=O)c2ccc(C(=O)NCc3cccnc3)cc2C1=O (stereo not given) | -11% | 0.7% | 11%[15.4 µM] | 2% | . | -20 | -12
COc1ccc(OC)c2[nH]c(=O)c(CCNS(=O)(=O)c3ccc(Cl)cc3)cc12 | -7% | -28% | -29% | 4% | 6.6 | -17 | 8
Clc1ccc2c(c1)C1=C(C(c3ccncc3)O2)C(c2ccc(Br)cc2)n2ncnc2N1 (stereo not given) | -3% | 2.6% | 28% | -3% | 5.5 | 1 | 2
CC1CN(c2nc3ccccc3nc2SCC(=O)Nc2cccc(C(F)(F)F)c2)CC(C)O1 (stereo not given) | -18% | ? | -5% | . | . | -6 | .
CCCc1cc(=O)[nH]c(SCC(=O)N(C)C2CCS(=O)(=O)C2)n1 (stereo not given) | 8% | 1.0% | 10% | 16% | 1.2 | -5 | -4
COc1cc2c(cc1NC(=S)NC(=O)/C=C/c1ccc(OC)c(OC)c1)oc1ccccc12 | 5% | . | 10%[15.4 µM] | -4% | 6.2 | -9 | 8
O=C(CSc1ccc([N+](=O)[O-])cn1)Nc1ccc2c(c1)OCO2 | 5% | . | 11% | 6% | 6.1 | -1 | -9
COCC(=O)N(Cc1cc2ccc(C)cc2[nH]c1=O)c1ccc(OC)cc1 | 5% | ? | 0% | 7% | 4.4 | -11 | 0
O=C(CCc1nnc2n(Cc3ccc(F)cc3)c(=O)c3ccccc3n12)NCCCN1CCOCC1 | -7% | -1.6% | 9% | 11% | 3.3 | -17 | ?
CCCNC(=O)c1c(N)n(-c2cc(OC)cc(OC)c2)c2nc3ccccc3nc12 | -15% | ? | -39%[inhibitor] | ? | 1.7 | -1 | -13
OC1CCN(c2cc(-c3ccccc3)nc3cc(-c4ccc(F)cc4)nn23)CC1 | -15% | . | 27% | ? | 2.7 | -3 | 3
Cc1ccc(C)c(NCCC#N)c1 | 5% | -0.6% | 4%[15.4 µM] | 20% | 2.7 | -8 | 0
CNc1nnc(-c2ccncc2)s1 | 2% | ? | -47%[inhibitor] | 19% | 5.4 | -1 | -36
COc1cccc(OCC(Cn2c(C)nc3ccccc32)OC(C)=O)c1 (stereo not given) | -5% | . | -22% | -17% | 2.0 | 2 | -18
FC(F)(F)c1cnc2c(-c3ccccc3)n[nH]c2c1 | -6% | . | 11%[15.4 µM] | 16% | -2.1 | -6 | 9
CCN(c1ccccc1)S(=O)(=O)c1ccc(Cl)c(C(=O)NCC2CCCO2)c1 (stereo not given) | . | . | 6%[15.4 µM] | 15% | 0.0 | -4 | -4
Cc1ccc(N2C(=O)Nc3ccccc3S2(=O)=O)cc1Cl | 4% | 0.5% | -5%[15.4 µM] | 4% | 6.0 | -5 | -14
O=C1c2cccc(O)c2C(=O)c2c(O)cccc21 | . | . | . | 28µM*! | -15&-19&-18 | . | 6
CCOC(=O)C1=C(C)Nc2ccccc2N=C1NC(=O)c1cccc(S(=O)(=O)N(C)C)c1 | -27% | -0.5% | -38%[inhibitor] | 5% | 0.6 | -25 | 0
COc1ccc(-c2cc(-c3ccccc3O)[nH]n2)cc1 | -4% | -2.1% | -12% | -8% | -0.3 | -5 | 16
COC(=O)/C(=C\Nc1ccc(Cl)c2ccccc12)c1ncc(C(F)(F)F)cc1Cl | -11% | 0.4% | 3% | ? | -1.9 | 13 | 6
CSc1ncnc2c1ncn2CCCNc1ccc(C)c(C)c1 | . | 1.5% | 0% | . | . | 2 | .
CCN(CC(=O)Nc1ccccc1C(=O)OC)S(=O)(=O)c1ccc(OC)cc1 | -10% | -19% | 0% | -1% | 3.1 | -10 | 6
CC(C)Oc1ccc(CNC(=O)c2cc(S(=O)(=O)N3CCOCC3)cn2C)cc1 | 14% | 2.4% | 12% | 12% | -2.1 | -10 | -1
Fc1cccc2sc(Nc3nc4ccccc4s3)nc12 | -15% | -5.5% | -6% | 6% | 1.0 | -2 | 18
CC(=O)C1=C(O)C(=O)N(c2ccc(O)cc2)C1c1ccccc1 (stereo not given) | -13% | 0.4% | 2% | -3% | -0.2 | -7 | 11
O=C(NCCSc1ccccc1)c1ccco1 | 2% | -5.9% | -28% | -20% | 1.3 | 0 | -5
Oc1ccccc1-c1nc(NCc2ccco2)c2ccccc2n1 | ? | -0.3% | 1% | ? | 3.4 | -5 | 0
Cc1csc(SCC(=O)c2ccc(S(=O)(=O)N3CCOCC3)cc2)n1 | -15% | 0.9% | -44% | ? | ? | 0 | 8
Cc1ccc(C)c(N2CCN(C(=O)CC3Sc4ccccc4NC3=O)CC2)c1 (stereo not given) | ? | -0.2% | 17% | 1% | 8.1 | -3 | -10
CCC(C)NC(=O)CN(c1cc(C)cc(C)c1)S(=O)(=O)c1c(C)[nH]c(=O)[nH]c1=O (stereo not given) | 12% | -1.6% | 21% | 2% | 1.3 | -9 | -3
COc1ccc(C(=O)OCC(=O)NC(=O)CCSc2ccccc2)cc1 | 2% | 3.2% | -87%[inhibitor] | 17% | -3.5 | -6 | 6
CC(=O)Nc1ccc(NC(=O)C(C)OC(=O)COc2ccc(Nc3ccccc3)cc2)cc1 (stereo not given) | -19% | -0.4% | -14% | . | . | 5 | 2
CC(C)(C)OC(=O)[C@H](Cc1ccccc1)NC(=O)c1nc[nH]c1C(=O)N[C@@H](CCCCN)C(=O)OC(C)(C)C | 4% | -1.1% | 5% | . | . | -26 | .
CCn1nc(CC(=O)Nc2nnc(CC(=O)N3CCOCC3)s2)c2ccccc2c1=O | -12% | -0.5% | -47% | 13% | 4.5 | -8 | -3
COc1cc(C(=O)N/C(=C\c2cn(C)c3ccccc23)C(=O)NCCCN2CCOCC2)cc(OC)c1OC | 3% | -7.1% | ? | -1% | . | -32 | -2
Cc1nc2c(sc3nc4c(cc32)COC(C)(C)C4)c(=O)o1 | -9% | -10% | -14% | -22% | 2.6 | -10 | 1
CCC1CCCCN1C(=O)CCc1nnc(Cc2c[nH]c3ccccc23)o1 (stereo not given) | 9% | -1.0% | 2% | 22% | -1.0 | 0 | 2
O=C(c1cncc(Br)c1)N1CCc2ccccc2C1 | 9% | 3.8% | -4% | 1% | -2.8 | -6 | -16
